PINK1 expr mod – A Quantitative High throughput Screen to Identify Chemical Modulators of PINK1 Expression. PINK1 immunofluorescence, high-content cytometry, 24 h. Potency, µM (titrated, usually from 76.6 µM), without a hit: top-dose activation (PINK1 increase), actives largely listed as activators. 410,000 tested, 0.2% active. AID 624263, 2012; active = well fitted activation curve with a large enough effect; inconclusive = small, poorly fitted or top-dose-only effect; inactive = flat fitted curve, though single readings scatter; cell line not stated here;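 note: potency is the fitted concentration of half-maximal effect; % of control where 0% means no effect; nearly all actives have a fitted effect of over 65% in size; a mitochondrial uncoupler was the plate control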
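Fluorescence from anti-PINK1 antibody, together with nuclear and cell stains, was scanned on a laser-scanning cytometer. Before staining, stable-line cells were incubated 24 hours with compounds at 5 concentrations; primary antibody 12 h at 10 degrees C.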
gsp agonist – qHTS for Agonist of gsp, the Etiologic Mutation Responsible for Fibrous Dysplasia/McCune-Albright Syndrome: qHTS | gsp mutant cells, cAMP HTRF, 30 min; control for the full effect not named in the record | Potency, µM (top dose mostly 76.9 µM), for inactives: at the top dose activation (cAMP increase), actives largely listed as activators | 340,000 tested, 0.13% active | AID 624287, 2012; active = well fitted activation curve with a large enough effect; inconclusive = small, poorly fitted or top-dose-only effect, or another doubt; inactive = no such curve, though single readings can be large or run the other way; cell line not stated here;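 note: phosphodiesterase inhibitor Ro 20-1724 added with compounds to block cAMP breakdown; potency is the fitted concentration of half-maximal effect; nearly all actives have a fitted effect of over 60% in size; about a fifth of the inactives were tested at one dose only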
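Cells stably selected in G418 were plated at 2000/well, grown 16-24 hr, then given compounds in DMSO with the PDE inhibitor […] (300 uM solution added) for 30 min at 37C; cAMP was read by HTRF.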
ClpP mod – qHTS Assay for Activators of ClpP. purified B. subtilis ClpP, FRET peptide cleavage, 20 min. 340,000 tested, 1.9% active. ATP-dependent Clp protease proteolytic subunit (Bacillus subtilis (strain 168)), P80244. Potency, µM (doses to about 57.5 µM), for the others: top-dose activity change, negative = active. AID 651965, 2013; active = well fitted falling curve with a large enough effect; inconclusive = small, poorly fitted or top-dose-only effect; inactive = no such curve, though single readings can be large or run the other way; note: potency is the fitted concentration of half-maximal effect; the source files actives as falling curves though it sought activators and does not explain the sign; nearly all actives have a fitted effect of over 65% in size; many hits overshoot -100%
Target sequence (P80244 whole entry, looked up): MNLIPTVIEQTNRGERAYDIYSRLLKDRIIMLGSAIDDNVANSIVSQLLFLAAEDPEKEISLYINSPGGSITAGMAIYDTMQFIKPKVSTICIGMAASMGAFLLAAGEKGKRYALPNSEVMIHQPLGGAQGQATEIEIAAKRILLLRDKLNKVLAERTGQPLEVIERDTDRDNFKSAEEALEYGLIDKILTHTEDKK
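Purified B. subtilis ClpP, 10 microg/mL final in Tris/HCl pH8 with KCl, BSA, glycerol and Tween-20, cleaved an Abz/nitrotyrosine-quenched decapeptide. Fluorescence (ex 320, em 430) was read at 0 and 20 min at room temperature. Delta was normalized to 5.8 microM ADEP and DMSO/no-enzyme controls.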
Menin-MLL FL inh – qHTS Assay for Inhibitors Targeting the Menin-MLL Interaction in MLL Related Leukemias: Competition With Fluorescein Labeled MLL-derived Peptide; Fluorescence polarization, fluorescein-MLL peptide displacement from menin; FP activity change, % at 61.4 µM; 290,000 tested, under 10 active; AID 1766, 2009; inconclusive = falling polarisation curve, or a change in total fluorescence; inactive = total fluorescence flat and polarisation flat or rising; no compound was filed as active; the % refers to the polarisation; negative = inhibition;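 note: % of control where 0% means no effect; inhibitors lower the polarisation; unlabelled MLL peptide was the positive control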
gsp antagonist – qHTS for Antagonists of gsp, the Etiologic Mutation Responsible for Fibrous Dysplasia/McCune-Albright Syndrome: qHTS | AID 624288, 2012 | gsp-mutant cells, cAMP HTRF, 30 min; control for the full effect not named in the record | 340,000 tested, 0.4% active | Potency, µM (doses to about 76.9 µM), for the others: top-dose activity change, negative = inhibition, most hits filed as inhibitors; active = falling curve of any shape with a large fitted effect; inconclusive = falling curve, mostly with a smaller effect; inactive = flat or rising curve; cell line not stated here;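 note: intracellular cAMP measured with PDE inhibitor Ro 20-1724 present during compound exposure; potency is the fitted concentration of half-maximal effect; % is set by controls: 0 for no effect and ±100 for the full control effect; nearly all actives have a fitted effect of over 65% in size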
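Measurement of cellular cAMP by homogeneous time-resolved fluorescence following a 30 min compound exposure at 37C. The PDE inhibitor […] was present throughout; the assay buffer was DPBS with 0.05% BSA and 0.005% Tween 20.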
D2 agonist – Beta-Arrestin HTS for Positive Allosteric Modulators of the Human D2 Dopamine Receptor: Agonists; DiscoveRx PathHunter D2 beta-arrestin, luminescence, 90 min; 100% = 57 uM dopamine signal; activation, % (test concentration not listed); 360,000 tested, 0.084% active; AID 624465, 2012; in the data active = activation above about 40%; inconclusive = about 15% to 40%; inactive = below about 15%; note: compound concentration not given in the record; the text of the record calls up to 30% inactive
Target sequence (P14416 whole entry, looked up): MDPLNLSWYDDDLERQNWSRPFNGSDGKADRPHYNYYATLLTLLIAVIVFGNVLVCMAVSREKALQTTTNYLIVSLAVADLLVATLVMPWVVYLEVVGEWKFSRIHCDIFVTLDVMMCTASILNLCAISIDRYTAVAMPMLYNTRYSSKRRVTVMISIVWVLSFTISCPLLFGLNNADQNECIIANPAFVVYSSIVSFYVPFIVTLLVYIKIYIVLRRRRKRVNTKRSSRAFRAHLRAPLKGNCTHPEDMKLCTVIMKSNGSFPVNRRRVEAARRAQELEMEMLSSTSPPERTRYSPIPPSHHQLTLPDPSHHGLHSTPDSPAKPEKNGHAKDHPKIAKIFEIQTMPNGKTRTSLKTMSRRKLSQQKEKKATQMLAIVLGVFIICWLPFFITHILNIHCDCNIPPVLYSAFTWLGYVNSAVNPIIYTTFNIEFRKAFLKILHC
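DiscoveRx PathHunter D2 beta-arrestin cells (2,100/well) attached overnight, then compound-stimulated 90 min at 37 C in HBSS/10 mM HEPES/0.1% Tween-20 buffer; beta-galactosidase complementation read by luminescence after 1 h at ambient temperature. Dopamine 57 uM final (EC100) as control.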
Sfp inh – qHTS Assay for Inhibitors of Bacillus subtilis Sfp phosphopantetheinyl transferase (PPTase); 4'-phosphopantetheinyl transferase ffp (Bacillus subtilis), Q9F4F7; AID 1490, 2009; Potency, µM, for the others: max response, negative = inhibition, usual class: inhibitors; Biochemical Sfp PPTase activity, qHTS; 310,000 tested, 3.5% active; active = well fitted inhibition curve with a large enough effect; inconclusive = small, poorly fitted or top-dose-only effect, or another doubt; inactive = no such curve, though single readings can be large or run the other way;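 note: the enzyme is Sfp with the accession as filed and its product quenches rhodamine fluorescence; potency is the fitted concentration of half-maximal effect; 0% = enzyme reaction without inhibitor and -100% = no enzyme wells; top concentration of the series not given in the record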
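Fluorescence-quenching assay: 15 nM Sfp-PPTase preincubated 15 min at room temperature with compound, then 5 uM rhodamine-CoA and 12.5 uM BHQ-2-labelled YbbR peptide added. Fluorescence (ex 525/em 598 nm) read at start and after 30 min; difference gives rate.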
* marks the source's active call; other numbers are inactive results; u = inconclusive; x = no result given; & = joins results of further samples; ! = not active in a repeat; [ ] = remark or other dose.

Second line of a record – PINK1 expr mod	gsp agonist	ClpP mod	Menin-MLL FL inh	gsp antagonist	D2 agonist	Sfp inh
> CCOc1ccc(CCNC(=O)C2CCC(=O)N2CCc2ccccc2)cc1OCC (stereo unspecified)
  4.5%[38.3 µM]	11.3%	-0.5%	0.9	-9.0%	-0.9	16.2%
> CCc1cc(Cn2nc(-c3ccccc3)cc2C(=O)NCc2cccc(Br)c2)on1
  0.5%	x	1.0%	x	-10.5%	0.6	x
> O=C(COC(=O)Cc1ccccc1F)Nc1ccc2c(c1)OCCO2
  -0.9%	-35.2%[inhibitor]	-0.8%	3.7	4.3%	-0.1	5.6%
> Cc1nn(C)cc1/C=C/C(=O)c1cccs1
  0.1%	0.8%	u	4.6	4.7%	-0.6	3.1%
> Cc1ccc(CNC(=O)CNS(=O)(=O)c2ccc3nc(C)sc3c2)cc1
  -0.7%	24.2%	1.3%	1.5	10.2%	0.9	-0.9%
> Cc1ccc(-c2nc(CS(=O)(=O)CC(=O)NCCCN3CCN(C)CC3)c(C)o2)cc1
  6.6%	-7.9%	-5.7%	-6.9	9.5%	-1.5	15.1%
> O=C(Nc1ccc(S(=O)(=O)N2CCCC2)cc1)c1cc(=O)c2ccccc2o1
  -0.6%	8.3%	-1.2%	-1.0	-12.1%	-1.8	-13.2%
> CCOC(=O)C(=CNc1cc(C)nn1-c1ccccc1)C(=O)OCC
  -7.4%[38.3 µM]	-69.6%[inhibitor]	0.3%	2.1	u	1.4	13.5%
> CCOCCCNC(=S)Nc1ccc2nc(N3CCN(CC)CC3)cc(C)c2c1
  6.5%	u	0.0%	11.0	4.9%	-2.4	10.7%
> O=C(c1ccc(CS(=O)Cc2ccc(Cl)cc2)o1)N1CCN(c2ccccn2)CC1 (stereo unspecified)
  -0.8%	-4.7%	-3.1%	-3.5	-14.0%	-1.1	5.3%
> CCn1c(COc2ccc(=O)n(-c3ccccc3)n2)nnc1SC
  -0.7%	0.8%[15.4 µM]	x	-1.8	1.8%	-3.0	7.7%
> Cc1ccsc1C(=O)Nc1ccc(F)c([N+](=O)[O-])c1
  0.0%	17.4%	-0.7%	0.1	-8.2%	-5.8	0.7%
> CN(C)S(=O)(=O)c1cc(C(=O)Nc2ccccc2C(=O)NC2CC2)ccc1Cl
  4.2%	-10.5%	-1.4%	x	-2.1%	-0.9	x
> Cc1ccc(/C=C/C(=O)N2CC(=O)Nc3ccccc32)o1
  -1.0%	-11.6%	x	u	-7.4%	-0.6	7.08µM*
> O=C(Nc1ccc(Oc2cccnc2)cc1)C1CCN(Cc2ccc(F)cc2)CC1
  0.1%	14.9%	-2.7%	x	2.7%	-10.8	5.1%
> Cn1nc(C(F)(F)F)cc1-c1ccc(/C=C(\C#N)C(=O)c2ccccc2)s1
  u	-26.8%	x	u	5.0%	3.0	-2.7%
> CCCOc1ccc(C(=O)NCC2OCCc3ccccc32)cc1OC (stereo unspecified)
  -0.4%	12.2%[15.4 µM]	x	4.7	-11.5%	0.8	-18.1%
> N#C/C(=C\c1ccc(O)c(O)c1)C(=O)NCCCc1ccccc1
  0.0%	x	-2.4%	u	-15.3%	-1.5	63.1µM*!
> CCN(CC)c1ccc(/C=C2\CCC(/C=N/NC(=O)c3ccc(=O)n(C)c3)=C2N2CCOCC2)cc1
  5.5%	6.7%[15.4 µM]	x	u	-9.7%	-4.1	-0.7%
> CSc1nsc(SC)c1C(N)=O
  2.9%	14.4%	-0.8%	0.2	6.3%	-5.4	19.4%
> O=S(=O)(c1cccc2cccnc12)N1CCc2ccccc21
  -1.0%	-38.4%[inhibitor]	-1.6%	0.5	6.0%	0.0	21.0%
> CC(=O)Nc1ccc(/C=N/Nc2nncc3ccccc23)cc1
  16.4%	-1.0%[15.4 µM]	0.0%	0.3	2.3%	-2.8	89.1µM*
> CCN(c1ccccc1)S(=O)(=O)c1nnc(NC(=O)c2ccccc2OC)s1
  0.7%&0.3%	0.2%	-5.7%&-4.4%	0.7	-18.0%	4.0	4.6%
> O=C(NCCOC(=O)c1ccc(C(=O)OCCNC(=O)c2ccccc2)o1)c1ccccc1
  -0.8%	4.5%	0.5%	-2.3	-4.1%	-2.9	-3.5%
> CCN(CC)C(=O)c1[nH]cnc1C(=O)NCc1ccc(CNC(=O)OC(C)(C)C)cc1
  1.8%	x	-2.1%	x	4.2%	-2.7	x
> CCCc1cc(=O)oc2c(C)c(OCC(=O)NCCCn3ccnc3)ccc12
  -0.2%	-0.9%	x	-0.4	-2.6%	-1.3	7.3%
> COC(=O)c1ccc(-c2ccc(OC)c([C@H]3[C@H]4C=CC[C@@H](C)[C@@H]4C(=O)N3Cc3ccccc3)c2)cc1
  5.9%	x	3.5%	0.8	9.4%	-2.1	-3.7%
> O=C(COC(=O)CC1CC2CCC1C2)NCc1ccccc1 (stereo unspecified)
  2.1%	-9.8%[15.4 µM]	-0.2%	x	8.2%	-1.6	x
> CCN1CCN(C(c2cc(OC)ccc2OC)c2nnnn2Cc2ccccc2)CC1 (stereo unspecified)
  -0.3%	-10.4%	-0.2%	0.6	12.7%	-3.6	5.3%
> Cc1ccc(Cl)cc1N1CCN(S(=O)(=O)N2CCCCC2)CC1
  2.1%	-11.2%[15.4 µM]	x	6.5	-3.8%	-2.6	-4.6%
> Cc1cccc(N2CCN(C(=O)C3(S(=O)(=O)c4ccc(Cl)cc4)CC3)CC2)c1C
  1.0%	u	-0.3%	-0.4	0.1%	-1.7	-8.6%
> COc1ccccc1NC(=O)/C(=N/OCc1ccc(C#N)cc1)C(C)=O
  -1.0%	-1.3%[15.4 µM]	x	-1.0	-13.1%	-0.7	9.5%
> COc1ccc(C)cc1NC(=O)c1ccc(CN2CCc3ccccc3C2)cc1
  2.6%	-30.0%	x	3.9	-13.7%	-0.7	-2.7%
> O=C1CC(c2ccc(F)cc2)Sc2ccccc2N1 (stereo unspecified)
  -3.1%[38.3 µM]	-24.1%	-2.3%	-2.3	10.5%	-3.7	9.1%
> CC(=O)[C@@]1(O)C(C)CC2C3C=C(C)C4=Cc5c(cnn5-c5ccccc5)C[C@]4(C)C3C(O)C[C@@]21C (stereo partly specified)
  10.4%	-4.2%[15.4 µM]	x	-0.1	-10.2%	3.2	19.5%
> COCCN1C(=O)CCC1(C)C(=O)Nc1ccc2ccccc2c1 (stereo unspecified)
  1.0%	x	-1.8%	x	x	-4.2	x
> CCOC(=O)c1cnc2ccccc2c1NCc1ccco1
  6.6%	-14.3%	-20.5%	1.0	-20.6%	-4.0	44.7µM*
> CN(Cc1ccc(Cl)cc1)C(C(=O)NC1CCCCC1)c1cc2ccccc2o1 (stereo unspecified)
  5.4%	x	-4.1%	x	x	-6.5	x
> Cc1ccsc1/C=N/n1c(-c2cc(-c3ccccc3)n[nH]2)n[nH]c1=S
  1.5%	-2.0%[15.4 µM]	x	1.1	-17.1%	-2.1	70.8µM*
> c1ccc(COc2ccc(Nc3ncnc4nc[nH]c34)cc2)cc1
  1.3%	-1.4%	-11.6%	7.1	-22.9%	0.0	11.5%
> O=C(CSc1nnc(-c2cccs2)o1)N1CCCCC1
  7.0%	33.9%	-23.0%	3.6	4.8%	-3.4	6.3%
> Cc1ccccc1NC(=O)COC(=O)CCc1nc2ccccc2c(=O)[nH]1
  0.2%	-24.2%	3.3%	0.5	3.5%	-3.0	14.4%
> Cc1sc2nc(C(C)Nc3ccccc3N3CCOCC3)[nH]c(=O)c2c1C (stereo unspecified)
  4.5%	1.5%	-0.2%	4.7	6.6%	-1.7	4.9%
> Cc1c(C(=O)Nc2ccc(C(=O)Nc3ccccc3)cc2)cccc1[N+](=O)[O-]
  4.3%	33.6%	x	-3.4	5.5%	-5.5	-6.6%
> COc1ccc2[nH]c(C)c(CCNC(=S)Nc3ccc(C)cc3)c2c1
  1.4%	-10.9%	-1.5%	-2.7	-12.7%	-2.4	-2.2%
> COc1cccc(C2=NOC(C(=O)Nc3ccc(OC)c(OC)c3)C2)c1 (stereo unspecified)
  1.5%[38.3 µM]	-33.0%[inhibitor]	0.7%	-2.8	-7.6%	-1.0	8.1%
> Cc1cccc(-c2cc(C(=O)N3CCCc4ccccc43)c3ccccc3n2)c1
  0.0%	-4.4%	-1.3%	2.2	-7.7%	-6.0	11.4%
> CCOc1ccc(S(=O)(=O)Nc2ccncc2)c(C)c1C
  -0.5%	-11.2%[15.4 µM]	x	-0.4	x	0.7	7.8%
> CS(=O)(=O)c1cccc(S(=O)(=O)N2CCN(c3ccccn3)CC2)c1
  1.2%	-32.2%[inhibitor]	-2.8%	-2.5	-5.5%	4.4	12.6%
> COn1c(SCc2cccnc2)nc2ccccc2c1=O
  -0.4%	-20.3%	2.0%	6.8	-6.6%	0.4	7.5%
> CCOC(=O)CSc1nn(C)c(=S)s1
  4.5%	-27.6%	1.6%	2.0	-16.8%	1.4	-0.9%
> CCN(C(=O)CCN1C(=O)c2ccccc2S1(=O)=O)c1ccccc1
  -2.7%	-30.3%[inhibitor]	3.7%	x	3.8%	1.3	x

Compound activity deposited in PubChem BioAssay by National Center for Advancing Translational Sciences (NCATS).
